# FGF22 binding: binders of recombinant human FGF22 by thermal shift. Q9HCT0. AID 651658. calls only at 9.99 µM. 1.5% of 340,000 active. SYPRO orange fluorescence; percent of sucrose octasulfate shift, DMSO zero;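 active = melting point raised past a set limit in the mean and every replicate; three in four hits are not shown here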
# Target sequence (Q9HCT0 whole entry, looked up): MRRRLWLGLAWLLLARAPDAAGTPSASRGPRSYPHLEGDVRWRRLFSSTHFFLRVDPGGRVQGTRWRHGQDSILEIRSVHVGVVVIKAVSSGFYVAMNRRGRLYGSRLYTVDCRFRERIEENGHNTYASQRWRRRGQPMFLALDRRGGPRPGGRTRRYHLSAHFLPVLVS
# AF4-AF9 inh: MLL-AF4/AF9 protein interaction inhibition. 0.47% of 350,000 active. P42568. AlphaScreen, biotin-AF4 peptide binding to FLAG-AF9. inhibition, % at 10 µM;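 active = every replicate reaching a set inhibition limit, whatever the replicate mean, cut at about 25% in these data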;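 also: 0% = plate neutral control median and 100% = total signal loss; the record names both 10 and 1 µM as test concentration; the first replicate is given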
# Target sequence (P42568 whole entry, looked up): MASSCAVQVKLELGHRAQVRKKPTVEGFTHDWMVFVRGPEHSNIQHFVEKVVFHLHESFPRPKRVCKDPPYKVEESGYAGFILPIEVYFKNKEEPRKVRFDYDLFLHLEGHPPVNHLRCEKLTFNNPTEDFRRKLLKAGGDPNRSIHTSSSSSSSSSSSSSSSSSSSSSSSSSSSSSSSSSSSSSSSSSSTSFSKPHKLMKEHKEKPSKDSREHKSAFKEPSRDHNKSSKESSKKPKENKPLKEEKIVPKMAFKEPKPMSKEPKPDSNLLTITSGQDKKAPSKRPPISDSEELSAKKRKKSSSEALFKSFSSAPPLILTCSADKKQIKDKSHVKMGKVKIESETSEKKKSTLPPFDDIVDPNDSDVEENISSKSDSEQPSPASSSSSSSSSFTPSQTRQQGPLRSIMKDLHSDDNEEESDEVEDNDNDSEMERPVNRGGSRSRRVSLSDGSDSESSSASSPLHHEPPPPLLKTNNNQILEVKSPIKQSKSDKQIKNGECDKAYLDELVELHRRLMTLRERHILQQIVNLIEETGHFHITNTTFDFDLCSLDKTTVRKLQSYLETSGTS
# rRNA inh HTS: inhibitors of bacterial rRNA selective over humanized ribosomes | E. coli WT GFP vs humanized-ribosome RFP mutants, fluorescence, 24 h; hits give low values; DMSO median 0, no signal -100 | GFP signal change (wild-type ribosome), % (no concentration beside the values) | 1.6% of 350,000 active | AID 720706;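 active = significant combined selectivity score with lowered wild-type GFP, culture density cut under 30%, mutant RFP and density less affected; inactive = any of these conditions unmet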; also: one replicate is shown; some compounds called inactive have numbers as strong as hits
# rRNA inh HTS OD600: further read-out of rRNA inh HTS, marked with its call; OD600 change, %; measured here: OD600 growth;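 optical density of the mix in the first replicate; 0 = DMSO median and -100 = no signal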
# rRNA inh HTS RFP: also measured in rRNA inh HTS; calls as there; RFP signal change, %; measured here: RFP humanized mutant strains;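 first replicate; 0 = DMSO median and -100 = no signal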
# Active calls of the source: *; i = inactive; + = active, no number; & = joins results of further samples.
FGF22 binding	AF4-AF9 inh	rRNA inh HTS	rRNA inh HTS OD600	rRNA inh HTS RFP	Compound
i	-5.7	3	-1	1.8	O=C(CN1CCOCC1)N1CCCCN2[C@H](CO)[C@@H](c3ccc(-c4ccccc4)cc3)[C@@H]2C1
i	-1.1	-5	0	1.2	C[C@@H]1CN([C@@H](C)CO)C(=O)c2cc(C#CC3(O)CCCC3)cnc2O[C@@H]1CN(C)Cc1ccncc1
i	0.1	1	6	-2.1	COc1ccccc1CNC(=O)C[C@@H]1C[C@@H]2c3cc(NC(=O)c4cccnc4)ccc3O[C@@H]2[C@@H](CO)O1
i	-1.6	7	-9	-1.4	COc1ccc(NC(=O)N(C)C[C@H]2Oc3ccc(NC(=O)CCCCCC(=O)Nc4ccccc4N)cc3C(=O)N([C@H](C)CO)C[C@@H]2C)cc1
i	0.5	1	-2	-1.8	Cc1ccc(S(=O)(=O)N[C@@H]2C=C[C@H](CC(=O)NCCN3CCCCC3)O[C@@H]2CO)cc1
i	-1.1	-6	10	0.8	CC1(C(=O)NS(=O)(=O)c2ccc3c(c2)CCO3)CCN1C(=O)Cc1ccc(-c2ccccc2)cc1 (centres undefined)
i	-4.6	0	-2	-2.9	C[C@H](CO)N1C[C@H](C)[C@@H](CN(C)Cc2ccccn2)Oc2ncc(-c3cccc(F)c3)cc2C1=O
i	-1.1	0	6	-3.6	CC(C)NC(=O)N(C)C[C@@H]1OCCCC[C@@H](C)Oc2ccc(NS(C)(=O)=O)cc2C(=O)N([C@H](C)CO)C[C@H]1C
i	2.9	-3	13	3.3	CN(Cc1ccc(C(F)(F)F)cc1)C(=O)[C@H]1O[C@@H](n2ccc(=O)[nH]c2=O)[C@H](O)[C@@H]1O
i	-0.4	-10	-11	4.3	CO[C@@H]1CN(C)C(=O)c2ccc(NC(=O)c3cc(C)on3)cc2OC[C@@H](C)N(S(=O)(=O)c2ccc(F)cc2)C[C@H]1C
i	0.6	-18*	0.8*	-2.9*	CCc1c(N=O)c(-c2ccccc2)n(O)[n+]1[O-]
i	-9.0	-3	-20	-6.0	O=C(NCC1CC1)[C@@H]1[C@@H](CO)[C@@H]2Cn3c(ccc(-c4ccc(F)cc4)c3=O)[C@H]1N2
i	-0.1	-5	-3	0.0	CCCCCn1nnnc1C1c2ccccc2C(=O)N1Cc1ccco1 (centres undefined)
i	-4.1	-2	2	2.2	CCC(=O)N1CC[C@@H]2[C@H]1c1cc(-c3ccccc3)ccc1N(C)[C@@H]2CO
i	0.8	0	-3	-0.8	CN(C)C(=O)[C@H]1[C@H](CO)[C@H]2Cn3c(ccc(-c4ccccc4F)c3=O)[C@@H]1N2C
i	-2.3	-2	-5	0.6	C[C@@H]1CN([C@@H](C)CO)C(=O)c2cc(NC(=O)CCC(F)(F)F)ccc2O[C@@H]1CN(C)S(=O)(=O)c1ccc(F)cc1
i	5.8	2	0	-0.8	COc1ccc(S(=O)(=O)N(C)C[C@H]2OCCCC[C@H](C)Oc3ccc(NC(=O)Nc4ccc5c(c4)OCO5)cc3C(=O)N([C@@H](C)CO)C[C@@H]2C)cc1
i	-2.6	-2	2	-1.2	C/C=C/c1ccc([C@@H]2[C@H](CO)N(Cc3cncnc3)C23CN(C(C)=O)C3)cc1
i	1.8	9	7	4.1	CCCNC(=O)C1(C)CCCN(Cc2cccn2C)C1 (centres undefined)
i	0.7	1	-9	1.5	C[C@@H]1CCCCO[C@@H](CN(C)C(=O)Cc2ccccc2)[C@H](C)CN([C@@H](C)CO)C(=O)c2cc(NS(=O)(=O)c3ccccc3)ccc2O1
i	-0.1	3	7	0.5	COc1ccc2c3c([nH]c2c1)[C@H](CO)NCC31CN(C(=O)Cc2cccnc2)C1
i	-2.4	-3	-6	-1.3	CC(C)NC(=O)Nc1ccc2c(c1)C(=O)N([C@@H](C)CO)C[C@@H](C)[C@H](CN(C)Cc1ccncc1)OCCCC[C@@H](C)O2
i	3.4	-1	-10	0.3	CO[C@H]1CN(C)C(=O)c2cc(NC(C)=O)ccc2OC[C@H](C)N(Cc2ccccc2F)C[C@@H]1C
i	-0.4	3	9	-1.9	C[C@@H]1CN([C@@H](C)CO)C(=O)c2cc(NC(=O)Nc3cccc4ccccc34)ccc2O[C@@H]1CN(C)S(=O)(=O)c1cccs1
i	3.1	-9	-15	1.5	COc1ccc(C(=O)N2C[C@@H]3[C@H](c4ccccc42)[C@H](CO)N3Cc2ccc3c(c2)OCO3)cc1
i	-12	8	0	3.4	O=C(Nc1nnc([C@H]2C[C@H](O)[C@@H](CO)O2)s1)NC(c1ccccc1)c1ccccc1
i	8.6	-25	-22	1.0	O=c1cccc(-c2ccc3ccccc3c2)o1
i	3.2	-1	5	0.2	COc1ccc(S(=O)(=O)Nc2cccc3c2O[C@H](CN(C)C(=O)Nc2ccc(F)cc2)[C@H](C)CN([C@@H](C)CO)C3=O)cc1
i	-2.5	3	2	-1.3	C[C@H]1CN([C@@H](C)CO)C(=O)c2cccc(N(C)C)c2O[C@H]1CN(C)C(=O)NC1CCCCC1
i	-0.4	-3	-6	-2.8	Cc1ccc(S(=O)(=O)N(C)C[C@H]2Oc3ccc(NC(=O)CCC(F)(F)F)cc3CC(=O)N([C@H](C)CO)C[C@H]2C)cc1
i	3.2&2.1	-16&2	-43&-10	2.6&4.9	C[C@@H]1CN([C@@H](C)CO)C(=O)CCCn2nncc2CO[C@H]1CN(C)Cc1ccc(Oc2ccccc2)cc1
i	0.5	2	1	-0.7	CN1C(=O)c2cc(NS(C)(=O)=O)ccc2OC[C@H]2O[C@@H](CC(=O)NCc3ccccc3)CC[C@H]21
i	-2.1	-2	-1	2.3	C[C@H](CO)N1C[C@H](C)[C@@H](CN(C)C(=O)c2ccccc2)OCCCC[C@H](C)Oc2ccc(NS(=O)(=O)c3ccccc3)cc2C1=O
i	7.9	-1	2	1.2	CCN(CC)S(=O)(=O)c1ccc(OC)c(NC(=O)c2cc([N+](=O)[O-])ccc2N2CCOCC2)c1
i	1.9	5	-5	5.0	CCC(=O)N1CC(=O)N2[C@H](CO)[C@H](c3ccc(C#CC4CCCCC4)cc3)[C@@H]2C1
i	-0.7	-2	0	-0.3	CO[C@H](CN(C)S(=O)(=O)c1cn(C)cn1)[C@@H](C)CN(C(=O)Nc1ccc(F)cc1)[C@@H](C)CO
i	-1.3	-3	-2	29	COC(=O)c1cc2c(c3c4cc(OC)ccc4n(S(=O)(=O)c4ccc(OC)cc4)c13)C(=O)N(C1CCCCC1)C2
i	7.2	0	0	-1.7	NCc1csc(NC(=O)Nc2cccc(C(F)(F)F)c2)n1
i	-4.2	5	6	-1.9	COc1ccc(-c2cnc3c(c2)C(=O)N([C@@H](C)CO)C[C@@H](C)[C@@H](CN(C)C(=O)C2CCC2)O3)cc1
i	2.1&-0.9	5	13	-1.0	C[C@H](CO)N1C[C@H](C)[C@H](CN(C)C)Oc2ncc(/C=C/c3ccccc3)cc2C1=O
i	-2.4	11	6	1.2	CN1CCn2cnc(C(=O)NCCCCCNC(=O)OC(C)(C)C)c2C1=O
+	0.9	-41	-54	-14	COc1ccccc1CNC(=O)C[C@H]1CC[C@@H]2[C@H](COC[C@H](O)CN2C(=O)Nc2ccc(Cl)cc2)O1
i	-4.6	6	8	-2.7	O=C(NCC1CCCCC1)c1ccc2nc([C@H]3C[C@H](O)[C@@H](CO)O3)[nH]c2c1
i	-1.0	2	5	1.9	COCCNC(=O)C[C@@H]1CC[C@H](NS(=O)(=O)c2ccc(C)cc2)[C@H](CO)O1
i	-0.2	6	11	1.8	COC(=O)C(C(=O)OC)c1ccccc1CNS(=O)(=O)c1ccc(C)cc1
i	-1.1	10	12	-0.9	COc1ccc(OC)c(C(O)c2ncc(-c3ccccc3OC)[nH]2)c1 (centres undefined)
i	1.6	1	6	-0.2	COc1ccc(S(=O)(=O)Nc2cccc3c2O[C@@H](CN(C)S(=O)(=O)c2cn(C)cn2)[C@H](C)CN([C@H](C)CO)C3=O)cc1
i	-2.3	0	6	0.0	Cc1noc(C)c1NC(=O)Nc1ccc2c(c1)C(=O)N([C@H](C)CO)C[C@@H](C)[C@H](CN(C)Cc1ccncc1)O2
i	0.3	3	8	-1.7	COc1cccc(CNC(=O)C[C@@H]2CC[C@H](NC(=O)C3CCOCC3)[C@@H](CO)O2)c1
i	11&8.9&14	3&-2	-12&3	-1.0&0.8	COc1ccc(C#Cc2cnc3c(c2)C(=O)N([C@H](C)CO)C[C@@H](C)[C@H](CN(C)C(=O)CN(C)C)O3)cc1

# Rewritten bar-delimited: three of the compounds above.
structure | FGF22 binding | AF4-AF9 inh | rRNA inh HTS | rRNA inh HTS OD600 | rRNA inh HTS RFP
CCc1c(N=O)c(-c2ccccc2)n(O)[n+]1[O-] | i | 0.6 | -18* | 0.8* | -2.9*
O=C(NCC1CC1)[C@@H]1[C@@H](CO)[C@@H]2Cn3c(ccc(-c4ccc(F)cc4)c3=O)[C@H]1N2 | i | -9.0 | -3 | -20 | -6.0
CCCCCn1nnnc1C1c2ccccc2C(=O)N1Cc1ccco1 (centres undefined) | i | -0.1 | -5 | -3 | 0.0

# (next part)
FGF22 binding	AF4-AF9 inh	rRNA inh HTS	rRNA inh HTS OD600	rRNA inh HTS RFP	Compound
i	-3.3	-6	-5	-4.5	C[C@@H]1CN([C@@H](C)CO)S(=O)(=O)c2ccc(-c3ccncc3)cc2O[C@@H]1CN(C)C(=O)CC1CC1
i	6.4	-1	-1	-1.8	CNC[C@@H]1Oc2ncc(C#Cc3ccccc3)cc2C(=O)N([C@H](C)CO)C[C@@H]1C
i	-4.1	-1	4	-0.4	C[C@@H]1CN([C@@H](C)CO)C(=O)c2cc(NC(=O)C3CCCCC3)ccc2O[C@@H](C)CCCCO[C@H]1CN(C)C(=O)NC1CCCCC1
i	-1.2	0	-8	-0.1	CN1C(=O)c2cc(NC(=O)c3cccc(F)c3)ccc2OC[C@H]2O[C@H](CC(=O)Nc3ccccc3)CC[C@H]21
i	-2.0	3	-5	3.4	C[C@H](CO)N1C[C@H](C)[C@H](CN(C)C(=O)CCN2CCCCC2)Oc2ncc(C#Cc3ccccn3)cc2C1=O
i	-0.8	-50	-74	-5.9	CCCNC(=O)N1CC(=O)N2[C@H](C1)[C@@H](c1ccc(C#Cc3cccc(OC)c3)cc1)[C@@H]2CO
i	-2.5	-3	2	0.0	COC(=O)C[C@H]1CC[C@H]2[C@H](COc3ccc(NC(=O)c4ccc(OC)cc4)cc3C(=O)N2C)O1
i	-2.9	1	8	-3.7	O=C(C[C@H]1CC[C@@H]2[C@H](COC[C@@H](O)CN2Cc2ccccc2)O1)NCCCN1CCOCC1
i	-2.6	1	0	-0.8	C[C@H]1CN([C@@H](C)CO)C(=O)c2cccc(NS(=O)(=O)c3ccc(Cl)cc3)c2O[C@H]1CN(C)Cc1ccncc1
i	-1.1	1	-4	1.5	COCC(=O)Nc1ccc2c(c1)C(=O)N(C)C[C@@H](OC)[C@H](C)CN(C(=O)c1ccccc1)[C@@H](C)CO2

# A draw from above in order of number of heavy atoms, smallest number first.
FGF22 binding	AF4-AF9 inh	rRNA inh HTS	rRNA inh HTS OD600	rRNA inh HTS RFP	Compound
i	-2.6	1	0	-0.8	C[C@H]1CN([C@@H](C)CO)C(=O)c2cccc(NS(=O)(=O)c3ccc(Cl)cc3)c2O[C@H]1CN(C)Cc1ccncc1
i	-2.4	-3	-6	-1.3	CC(C)NC(=O)Nc1ccc2c(c1)C(=O)N([C@@H](C)CO)C[C@@H](C)[C@H](CN(C)Cc1ccncc1)OCCCC[C@@H](C)O2
i	5.8	2	0	-0.8	COc1ccc(S(=O)(=O)N(C)C[C@H]2OCCCC[C@H](C)Oc3ccc(NC(=O)Nc4ccc5c(c4)OCO5)cc3C(=O)N([C@@H](C)CO)C[C@@H]2C)cc1

# Next section
FGF22 binding	AF4-AF9 inh	rRNA inh HTS	rRNA inh HTS OD600	rRNA inh HTS RFP	Compound
i	-0.4	-1	-2	0.2	C[C@@H]1CN([C@H](C)CO)C(=O)CCCn2cc(nn2)CO[C@@H]1CN(C)S(=O)(=O)c1ccc(Cl)cc1
i	0.5	-22	-69	-2.1	OC(c1ccc(Cl)c(F)c1)c1ncc(-c2ccccc2C(F)(F)F)[nH]1 (centres undefined)
i	1.8	1	-3	-1.0	O=C(C[C@H]1C=C[C@H](NC(=O)Nc2ccc(F)cc2)[C@H](CO)O1)NCCN1CCCC1
i	-6.7	-4	-8	6.2	CO[C@@H]1CN(C)C(=O)c2ccc(NC(=O)Nc3ccccc3Cl)cc2OC[C@@H](C)N(S(=O)(=O)CC(F)(F)F)C[C@H]1C
i	3.7	-5	0	-2.5	C[C@@H]1CN([C@H](C)CO)S(=O)(=O)c2ccc(-c3cccnc3)cc2O[C@@H]1CN(C)Cc1ccncc1
i	-1.6	-1	8	1.0	COc1ccc(CN(C)C[C@@H]2Oc3ccc(NC(=O)Cn4cnnn4)cc3CC(=O)N([C@H](C)CO)C[C@H]2C)cc1
i	-7.6	1	-3	-1.7	Cc1ccc(/C(O)=C2\C(=O)C(=O)N(C)C2c2ccccc2)cc1 (centres undefined)
i	5.7	-1	-6	11	COc1ccc(S(=O)(=O)N(C)C[C@@H]2OCCCC[C@@H](C)Oc3ccc(NS(=O)(=O)c4cccs4)cc3C(=O)N([C@H](C)CO)C[C@H]2C)cc1

# The list is partial; count on the stated rates, not on these rows.
